From PubChem
PKD1 kinase inh = PKD1 (human) kinase inhibition | Q15139 | PKD1 kinase fluorescence polarization assay | inhibition, %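 (about 10 µM by stock and volumes)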 | 200,000 compounds, 0.056% hits | AID 797;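 active means inhibition of 50% or more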;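 further: controls were vehicle for no effect and a reference inhibitor for full effect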
Insulin prom inh = TRM-6 insulin promoter activity inhibition; TRM-6 cells (human fetal islet line), insulin promoter-eGFP reporter, imaging; reporter expression induced with tamoxifen; inhibition, % at 2 µM; 130,000 compounds, 0.9% hits;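 active means inhibition above the mean plus 3 SD, with well images judged a real hit on visual review, cut at about 60% in these data, passing the limit was not always enough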
GALR2 agonist = agonists of human galanin receptor 2 (GALR2) | O43603 | GALR2-expressing cells, agonist activation read-out | activation, %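 (tested at 5 µM)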 | 140,000 compounds, 0.48% hits;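 active means above mean plus 3 SD of all compounds, about 5% in these data, not always enough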;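 further: 0% = vehicle buffer wells and 100% = reference agonist at full effect; tested in CHO reporter cells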
Target sequence (O43603 whole entry, looked up): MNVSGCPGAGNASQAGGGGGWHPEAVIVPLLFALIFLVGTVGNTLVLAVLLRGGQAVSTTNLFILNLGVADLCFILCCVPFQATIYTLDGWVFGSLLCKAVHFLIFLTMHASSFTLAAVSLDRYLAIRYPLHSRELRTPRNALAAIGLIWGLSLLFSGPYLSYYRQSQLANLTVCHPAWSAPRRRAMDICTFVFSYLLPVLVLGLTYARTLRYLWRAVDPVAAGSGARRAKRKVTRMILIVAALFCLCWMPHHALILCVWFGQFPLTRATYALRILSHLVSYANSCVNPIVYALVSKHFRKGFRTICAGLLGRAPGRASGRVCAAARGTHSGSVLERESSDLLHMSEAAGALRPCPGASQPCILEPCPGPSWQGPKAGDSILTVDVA
RGS16-Gao = modulates binding between human RGS16 and Galphao. O15492+P09471. bead-based flow cytometry RGS16-Galphao binding, fluorescence; actives lie on both sides. binding response (% of control), % at 10 µM. 220,000 compounds, 0.38% hits. AID 1441;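 active means below 25% or above 175%, edge rows of some plates excepted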;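 further: Galphao activated by GDP with aluminum fluoride before binding; 100% = wells without compound and 0% = beads without RGS; some results beyond the cut were filed as inactive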
Target sequence (O15492 whole entry, looked up): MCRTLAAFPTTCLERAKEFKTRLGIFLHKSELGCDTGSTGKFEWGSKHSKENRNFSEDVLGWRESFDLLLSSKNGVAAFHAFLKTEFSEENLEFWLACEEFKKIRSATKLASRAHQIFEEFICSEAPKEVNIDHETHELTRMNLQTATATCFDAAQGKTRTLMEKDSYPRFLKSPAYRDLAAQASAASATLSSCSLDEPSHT
Target sequence (P09471 whole entry, looked up): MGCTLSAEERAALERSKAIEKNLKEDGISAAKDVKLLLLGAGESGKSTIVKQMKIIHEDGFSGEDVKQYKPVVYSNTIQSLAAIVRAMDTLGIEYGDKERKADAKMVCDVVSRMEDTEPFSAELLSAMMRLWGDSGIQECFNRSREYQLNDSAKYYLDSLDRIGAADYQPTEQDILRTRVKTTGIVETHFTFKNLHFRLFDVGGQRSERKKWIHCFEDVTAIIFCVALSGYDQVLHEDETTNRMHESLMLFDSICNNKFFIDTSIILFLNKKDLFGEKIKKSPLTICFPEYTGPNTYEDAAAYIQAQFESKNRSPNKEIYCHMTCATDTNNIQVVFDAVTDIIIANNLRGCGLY
HSV augment = increases HSV replication in cells. HSV replication augmentation in cells, fold increase. maximum fold increase. 220,000 compounds, 0.005% hits. AID 1956;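 active means peak rise of 1.5-fold or more in the series; tested in PC3 cells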;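 further: first round at 10 µM; read as green reporter fluorescence; hits show the peak of a series up to 25 µM; 1 = signal of infected wells without compound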
Insulin prom inh cell count = second read-out of Insulin prom inh, no call of its own (marks repeat the call); normalized cell count, %; measured here: cell count, toxicity; reference of the scale not given here;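 cells exposed to compound for 48 h; stained nuclei by imaging scaled within each plate; lower means fewer cells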
HSV augment primary fold = further read-out of HSV augment, marked with its call; fold increase; compound at 10 µM; measured here: primary screen fold increase 10 uM; tested in PC3 cells;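 GFP signal in the first replicate; 1 = infected wells without compound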
Starred values were filed as active, the others as inactive; i = inactive; / = no result given.

#	structure	PKD1 kinase inh	Insulin prom inh	Insulin prom inh cell count	GALR2 agonist	RGS16-Gao	HSV augment	HSV augment primary fold
1	Cc1ccc2nc(NC(=O)CN(C)S(=O)(=O)c3ccc(Br)s3)sc2c1	5	66*	69*	-0.6	98	i	0.96
2	Cc1ccc(NC(=O)c2sc(Cl)nc2-c2ccccc2)cc1C	-2	-55	42	-1.5	97	i	1.1
3	CC(C)c1cc(Br)ccc1OCCN1C(=O)NC(C)(C)C1=O	-1	/	/	/	102	i	0.84
4	Cc1ccc(NC(=O)CN2C(=O)NC(Cc3ccccc3)C2=O)c(Br)c1 (centres undefined)	1	/	/	/	95	i	1.1
5	CCSc1ccccc1C(=O)NCc1ccc2c(c1)OCO2	-1	/	/	-0.9	85	i	0.93
6	O=C(NNC(=O)c1cc2cc(Br)ccc2oc1=O)c1ccc(O)cc1	-9	/	/	/	100	i	1
7	Cc1nn(-c2ccccc2)c2sc(C(=O)NCCN3CCOCC3)cc12	4	/	/	-1.1	100	i	0.87
8	CC1N(C)c2cc(NC(=O)c3ccco3)c(P(=O)(Nc3ccc([N+](=O)[O-])cc3)N3CCOCC3)cc2C1(C)C (centres undefined)	-1	/	/	/	104	i	1
9	COc1ccc(NC(=O)COC(=O)c2ccco2)c([N+](=O)[O-])c1	0	9	74	/	65	i	1
10	COc1ccc2nc(SCC(=O)NC(C)(C)C)[nH]c2c1	3	/	/	-1.5	98	i	0.76
11	Cc1cc(NC(=O)COC(=O)c2c(C)noc2C)ccc1Br	-7	14	39	/	101	/	/
12	C=CCN1C(=Nc2cccnc2)SCC1(O)c1ccc(C)cc1 (centres undefined)	-1	-31	39	-0.6	101	i	1.2
13	CSc1ncccc1C(=O)OCC(=O)c1cc2ccccc2o1	0	-9	75	-0.1	107	i	0.82
14	CCn1c(=O)c(C)nn2c3ccccc3nc12	-11	-18	59	-1.6	104	i	1.1
15	CNC(=O)CN(c1ccc(C(C)C)cc1)S(C)(=O)=O	1	18	162	0.4	96	i	0.94
16	Cc1ccc2nc(-c3ccccc3N)[nH]c2c1	-7	/	/	/	95	i	0.86
17	O=C(Nc1ccc(N2CCCC2)c(Cl)c1)c1ccco1	2	0	94	-1.3	100	i	1
18	O=C(CN1CCC(NC(=O)c2ccccc2F)CC1)Nc1ccc2c(c1)OCCO2	-4	/	/	/	99	i	0.97
19	Cc1ccc(C2C(C#N)=C3N=C(N)c4ccccc4N3C3=C2C(=O)CCC3)cc1 (centres undefined)	/	/	/	/	99	i	0.92
20	O=C(CCCn1cnc([N+](=O)[O-])n1)Nc1cccc(O)c1	0	0	116	/	114	i	1
21	CCCS(=O)(=O)N1CCN(CC2CC3C=CC2C3)CC1 (centres undefined)	4	-35	100	-2.4	99	i	0.82
22	COc1ccc(N(C(=O)Cn2nnc3ccccc32)C(C(=O)NCc2ccco2)c2cccnc2)cc1 (centres undefined)	5	25	51	-0.5	105	i	0.94
23	COc1ccc(N(C(=O)CCl)C(C(=O)NCCc2ccccc2)c2cccs2)cc1 (centres undefined)	-4	-163	1	-1.4	118	i	0.67
24	CCOc1cnn(Cc2ccccc2)c(=O)c1SCc1ccccc1	6	3	126	0.3	103	i	0.99
25	C=C(C)CSc1nnc(-c2cccc(Cl)c2)n1N	-4	-16	167	-1.9	100	i	1.5
26	CN(C)S(=O)(=O)Nc1ccccn1	/	/	/	/	86	i	1
27	COc1ccc(C(=O)Nn2cnc3ccccc3c2=O)c(OC)c1	-2	-16	32	0.4	100	/	/
28	CCn1c2ccccc2c2nnc(SCC(=O)OCN3C(=O)c4ccccc4C3=O)nc21	16	-7	138	-2.4	105	i	0.96
29	COc1ccc(C2C(C(=O)c3ccco3)=C(O)C(=O)N2c2nnc(C)s2)cc1 (centres undefined)	7	/	/	/	102	i	0.97
30	COc1ccc(/C=N/Nc2cc(=O)n(C)c(=O)n2C)cc1OC	-4	/	/	0.2	88	i	1.2

Next section
#	structure	PKD1 kinase inh	Insulin prom inh	Insulin prom inh cell count	GALR2 agonist	RGS16-Gao	HSV augment	HSV augment primary fold
31	O=C(NCC1CCN(C(=O)c2ccc([N+](=O)[O-])cc2)CC1)C(=O)Nc1ccccc1	-1	-107	93	/	104	i	0.86
32	COCCNC(=S)N/N=C(\C)c1ccc(OC)cc1	-8	0	76	-1.2	106	i	0.95
33	NC(=O)CSC1=Nc2ccccc2C2=NC(CCC(=O)NCc3ccc(F)cc3)C(=O)N12 (centres undefined)	-3	32	225	4.7	89	i	0.98
34	C=CC[n+]1c(-c2ccc(C)cc2)csc1NNC(=O)Nc1ccccc1	3	-49	93	-1.1	101	i	0.95
35	O=C(NCCCN1CCN(c2ccccc2F)CC1)C1CCN(S(=O)(=O)c2cccs2)CC1	4	-183	56	-1.3	99	i	0.87
36	N#Cc1c(C(F)(F)F)cc(-c2ccccc2)nc1SCCN1CCOCC1	3	-50	64	-1.0	105	i	1
37	CSCCC(NC(=O)C12CC3CC(CC(C3)C1)C2)C(=O)OCC(=O)c1ccc(Cl)cc1 (centres undefined)	0	/	/	-0.4	102	i	0.96
38	CC(C)OC(=O)CC1C(=O)NCCN1C(=S)NC(=O)c1ccccc1 (centres undefined)	5	-8	136	/	96	i	0.86
39	CN(C)c1ccc(C2OC(=O)C(C)(C)C(=O)C2(C)C)cc1 (centres undefined)	-4	-21	136	-1.5	97	i	0.92
40	C=CCN1C(=O)S/C(=C/c2ccsc2)C1=O	-1	-114	99	-1.9	73	i	0.84
41	O=C(NCc1ccccn1)C1CCN(S(=O)(=O)N2CCC3(CC2)OCCO3)CC1	-10	-28	90	-0.9	109	i	0.95
42	O=C(c1cccc(Br)c1)N1CCN(C(=O)N2CCCCC2)CC1	8	16	136	0.0	100	i	0.92
43	Cc1ccc(NC(=O)CSc2n[nH]c(C)c2[N+](=O)[O-])cc1C	1	/	/	-0.8	103	i	1
44	Cn1cccc1Cc1nnc(SCC(=O)NCC2CCCO2)n1-c1ccc(F)cc1 (centres undefined)	-3	-100	82	-0.8	101	i	0.95
45	C/C(=N\NC(=O)CSCc1ccc(Cl)cc1)c1ccc(NC(=O)c2ccccc2)cc1	-7	1	103	-2.0	101	i	0.89
46	COc1ccc(OC)c(NC(=O)c2ccc(CSc3nnc(C)s3)cc2)c1	-6	/	/	/	116	i	1
47	CCCS(=O)(=O)N1CCC(C(=O)NCc2ccccc2Cl)CC1	-14	/	/	-2.1	96	i	0.98
48	COC(=O)c1[nH]c2c(c1C)C(=O)CC(c1cccs1)C2 (centres undefined)	-1	-207	8	1.0	104	i	0.72
49	Cc1cc(C)cc(Nc2nc3ccccc3c(=O)[nH]2)c1	3	/	/	/	98	i	0.72
50	COc1ccc(/C=C/C(=O)NC(=S)NCC2CCCO2)cc1 (centres undefined)	-1	-21	121	/	103	i	0.92
51	O=c1cc(CN2CCN(c3ccccc3)CC2)nc2scc(-c3ccccc3)n12	-1	-73	45	/	150	i	0.87
52	O=C(O)c1cc(S(=O)(=O)Nc2ccc(N3CCCCC3)cc2)ccc1Cl	0	-43	56	/	101	i	1
53	CCOC(=O)C1CCCN(c2c(N3CCN(C4CCCCC4)CC3)c(=O)c2=O)C1 (centres undefined)	-6	/	/	-1.8	100	i	0.84
54	COc1ccc(N2CCN(c3cc(=O)n(Cc4ccc(F)cc4)c(=O)[nH]3)CC2)cc1	-9	-40	53	-1.7	95	i	0.96
55	Cc1ccc(C(C)n2cc(C(=O)NCc3ccccn3)nn2)cc1 (centres undefined)	0	57	117	/	116	i	0.82
56	COc1ccc(C(=O)c2ccc(N(C)C)cc2)c(OC)c1	-12	-127	104	-1.5	108	i	0.82
57	CCOC(=O)c1csc(NC(=O)CSc2nnnn2-c2ccc(OC)cc2)n1	-12	/	/	-1.8	102	i	1
58	CC(c1ccccc1F)n1cc(C(=O)NCCc2ccco2)nn1 (centres undefined)	0	/	/	-2.5	98	i	0.91
59	O=C(COc1ccc(-c2nnco2)cc1)N1CCN(S(=O)(=O)c2ccc3ccccc3c2)CC1	8	-8	104	1.0	100	i	0.94
60	COc1nc(C)ccc1-c1noc(-c2ccco2)n1	-8	0	92	-0.6	86	i	0.98

Brought forward from above: 5 compounds, followed by the next part.
#	structure	PKD1 kinase inh	Insulin prom inh	Insulin prom inh cell count	GALR2 agonist	RGS16-Gao	HSV augment	HSV augment primary fold
56	COc1ccc(C(=O)c2ccc(N(C)C)cc2)c(OC)c1	-12	-127	104	-1.5	108	i	0.82
57	CCOC(=O)c1csc(NC(=O)CSc2nnnn2-c2ccc(OC)cc2)n1	-12	/	/	-1.8	102	i	1
58	CC(c1ccccc1F)n1cc(C(=O)NCCc2ccco2)nn1 (centres undefined)	0	/	/	-2.5	98	i	0.91
59	O=C(COc1ccc(-c2nnco2)cc1)N1CCN(S(=O)(=O)c2ccc3ccccc3c2)CC1	8	-8	104	1.0	100	i	0.94
60	COc1nc(C)ccc1-c1noc(-c2ccco2)n1	-8	0	92	-0.6	86	i	0.98
61	CC1=Nn2c(nnc2-c2ccco2)SC1	4	21	79	-2.5	62	i	0.99
62	CC12CCC(C(=O)Nc3ccncc3)(CC1O)C2(C)C (centres undefined)	/	/	/	/	96	i	0.98
63	CCC(=O)N(C1=C(NC(C)C)C(=O)c2ccccc2C1=O)C(C)C	-4	/	/	/	99	i	0.87
64	CC(=O)Nc1ccc(S(=O)(=O)N2CCSC2C(=O)O)cc1 (centres undefined)	-4	6	45	-0.4	98	i	1.2
65	CC(C)COC(=O)c1cc(=O)[nH]c2ccccc12	10	-100	29	-0.1	110	i	0.87
66	Cc1cccn2c(=O)c(C=Nc3ccccc3)c(NCc3ccco3)nc12	4	/	/	0.3	90	i	0.86
67	Cc1ccc(NNC(=O)Nc2ccc(Cl)cc2)nn1	/	/	/	/	78	i	0.88
68	CC(=O)c1cc2c(cc1NS(=O)(=O)c1ccc(C)cc1)OCO2	0	/	/	-1.3	123	i	0.89
69	CC(C)CN(C(=O)CN1CCN(c2ccccc2O)CC1)c1c(N)n(CC(C)C)c(=O)[nH]c1=O	-12	-7	120	0.2	104	i	1.1
70	O=C(CN1C2CCC1CC(NC(=O)Nc1ccccc1)C2)NCc1ccco1 (centres undefined)	-5	58	137	-3.7	99	i	0.8
71	O=S(=O)(c1cc(F)cc(F)c1)N1CCN(c2ncccn2)CC1	-6	7	130	-1.9	100	i	0.87
72	CCOC(=O)N/N=C\c1ccc(OC(=O)c2ccc3c(c2)OCO3)cc1	-3	22	119	/	109	i	0.96
73	CCOC(=O)CNC(=O)Nc1cccc(Cl)c1C	3	-11	163	-0.4	96	i	0.83
74	C=CCNC(=O)COC(=O)COc1ccc(Cl)cc1	-1	23	115	/	103	i	1
75	COc1ccc(C(=O)NC(=S)Nc2cccc(Cl)c2N2CCOCC2)cc1[N+](=O)[O-]	21	/	/	-2.1	94	i	0.67
76	Cc1ccccc1NC(=S)N(CCN1CCCCC1)Cc1ccco1	-5	/	/	/	101	i	0.78
77	Cc1cc(C)c2nc(N3CCCC(C(=O)NCCN4CCOCC4)C3)sc2c1 (centres undefined)	-3	/	/	-2.3	103	i	0.85
78	COc1ccc(C(=O)NC2CCSC2=O)cc1 (centres undefined)	-3	14	90	-1.6	101	i	0.92
79	CN1N=C(C(=O)N2CCc3c([nH]c4ccccc34)C2c2ccccc2Cl)CCC1=O (centres undefined)	2	/	/	/	94	i	1
80	CCCCCCN1C2=NCCN2c2ccccc21	-1	84*	138*	-1.7	100	i	0.82
81	Cc1n[nH]c(C)c1Cc1c(F)cccc1Cl	/	/	/	/	99	i	1.1
82	CCOC(=O)c1sc(N)c(C(=O)OCC)c1COC(=O)C1CC(=O)N(Cc2ccco2)C1 (centres undefined)	-2	-61	163	0.1	98	i	0.94
83	c1ccc(CC2CCN(C(c3cccs3)c3nnnn3C3CCCC3)CC2)cc1 (centres undefined)	-7	14	95	-3.4	104	i	0.8
84	CCCC1CCc2c(sc(N)c2C(N)=O)C1 (centres undefined)	4	-10	70	-0.1	89	i	0.92
85	O=C(C[n+]1cccc(NC(=O)c2ccccc2)c1)c1cccc([N+](=O)[O-])c1	-1	36	160	/	122	i	0.9

An excerpt from above in order of molar mass, rising.
#	structure	PKD1 kinase inh	Insulin prom inh	Insulin prom inh cell count	GALR2 agonist	RGS16-Gao	HSV augment	HSV augment primary fold
3	CC(C)c1cc(Br)ccc1OCCN1C(=O)NC(C)(C)C1=O	-1	/	/	/	102	i	0.84
79	CN1N=C(C(=O)N2CCc3c([nH]c4ccccc34)C2c2ccccc2Cl)CCC1=O (centres undefined)	2	/	/	/	94	i	1
22	COc1ccc(N(C(=O)Cn2nnc3ccccc32)C(C(=O)NCc2ccco2)c2cccnc2)cc1 (centres undefined)	5	25	51	-0.5	105	i	0.94
